Yeast UUG start: alters start codon recognition fidelity in yeast | activity score, % at 18.7 µM | 0.13% of 350,000 active | S. cerevisiae UUG-firefly luciferase reporter, luminescence/redox ratio;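 active means replicate mean at a twofold rise or more, about +100% in these data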;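 further: firefly luciferase made from a UUG start codon reports start codon fidelity; reporter light over untreated wells divided by growth signal over untreated wells; some hits fall short of that in this replicate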
* hit, by the source's call.

SMILES	Yeast UUG start
CC(=O)N1[C@H](CO)[C@H]2c3ccccc3N(C(=O)Nc3cc(F)ccc3F)C[C@H]21	-7
CN1CCN(C(=O)C[C@H]2CC[C@H]3[C@@H](COC[C@H](O)CN3C(=O)Nc3ccc(Cl)cc3)O2)CC1	5
O=C(c1ccc(F)cc1)N1CCCCN2[C@H](CO)[C@@H](c3ccc(/C=C/c4ccccc4)cc3)[C@H]2C1	-10
O=C(C[C@@H]1CC[C@H]2[C@@H](COC[C@@H](O)CN2C(=O)c2ccncc2)O1)NC1Cc2ccccc2C1	10
Cc1cc(C(=O)Nc2cccc3c2O[C@H](CN(C)Cc2ccc(C(=O)Nc4ccccc4N)cc2)[C@@H](C)CN([C@@H](C)CO)C3=O)n(C)n1	-5
Cc1noc(C)c1NC(=O)Nc1ccc2c(c1)C(=O)N([C@@H](C)CO)C[C@H](C)[C@H](CN(C)Cc1ccc3c(c1)OCO3)O2	-8
CCCNC(=O)N1[C@@H](CO)[C@@H](c2ccc(-c3ccccc3)cc2)[C@@H]1CNC(C)=O	20
C[C@@H]1CN([C@H](C)CO)C(=O)c2cccc(NC(=O)NC3CCCCC3)c2O[C@H]1CN(C)S(=O)(=O)c1cn(C)cn1	-5
COc1ccc(-c2ccc3c(c2)[C@H]2[C@H](CCN2C(=O)c2ccccc2F)[C@H](CO)N3C)cc1	-14
O=C(Nc1ccc(F)cc1)N1C[C@@H]2[C@H](c3ccccc31)[C@@H](CO)N2Cc1ccccc1	-2
O=C(C1CCCC1)N1CCCCN2[C@H](CO)[C@@H](c3ccc(C#CC4CC4)cc3)[C@H]2C1	18
OC[C@H]1[C@H](c2ccc(-c3ccccc3F)cc2)[C@H]2CN(Cc3cncnc3)CCCCN21	5
Cc1ccc(S(=O)(=O)N(C)C[C@H]2Oc3ccc(N(C)C)cc3C(=O)N([C@@H](C)CO)C[C@H]2C)cc1	9
CCCC(=O)Nc1ccc2c(c1)C(=O)N(C)C[C@H](OC)[C@@H](C)CN(Cc1ccccc1F)[C@H](C)CO2	12
CCC(=O)Nc1ccc2c(c1)C(=O)N(C)[C@H]1CC[C@H](CC(=O)O)O[C@@H]1CO2	-4
CO[C@H]1CN(C)C(=O)c2ccc(NC(=O)C3CC3)cc2OC[C@@H](C)N(Cc2ccccc2)C[C@@H]1C	0
CC(=O)NC[C@@H]1[C@@H](c2ccc(C3=CCCC3)cc2)[C@H](CO)N1Cc1cccnc1	-9
COc1ccc(CN(C)C[C@@H]2Oc3ccc(NS(=O)(=O)c4cn(C)cn4)cc3CC(=O)N([C@@H](C)CO)C[C@@H]2C)cc1	8
C/C=C/c1ccc([C@@H]2[C@H](CO)N(C(=O)NCCC)[C@H]2CNC(=O)C2CCC2)cc1	-2
C[C@H](O)C#Cc1ccc([C@H]2[C@H]3CN(C(=O)Nc4ccccc4)CCCCN3[C@H]2CO)cc1	-4
O=C(NCc1ccccc1F)[C@H]1[C@H](CO)[C@H]2Cn3c(cccc3=O)[C@H]2N1CC1CC1	2
CO[C@@H]1CN(C)C(=O)c2ccc(NC(=O)C3CCOCC3)cc2OC[C@@H](C)N(C(C)=O)C[C@@H]1C	18
CCS(=O)(=O)Nc1ccc2c(c1)C(=O)N(C)C[C@@H](OC)[C@@H](C)CN(Cc1nccs1)[C@@H](C)CO2	-7
Cc1cccc(S(=O)(=O)N2CCCCN3[C@H](C2)[C@@H](c2ccc(-c4ccccc4)cc2)[C@@H]3CO)c1	5
CC(C)[C@H](C)NC(=O)N(C)C[C@@H]1OCc2ccccc2-c2c(n(C)c3ccccc23)C(=O)N([C@H](C)CO)C[C@H]1C	48
CCC(=O)Nc1ccc2c(c1)C(=O)N(C)[C@@H]1CC[C@@H](CC(=O)O)O[C@@H]1CO2	-13
C[C@@H]1CN([C@@H](C)CO)C(=O)c2cc(NC(=O)Cn3cnnn3)ccc2O[C@H]1CN(C)Cc1ccc(C(=O)O)cc1	-8
COC(=O)N(C)C[C@@H]1OCc2ccccc2-c2c(n(C)c3ccccc23)C(=O)N([C@H](C)CO)C[C@H]1C	29
C[C@H](CO)N1C[C@H](C)[C@@H](CN(C)Cc2ccc3c(c2)OCO3)Oc2ccc(NC(=O)Nc3ccc(F)cc3)cc2C1=O	3
C[C@H]1CN([C@@H](C)CO)C(=O)Cc2cc(NS(=O)(=O)c3ccc(Cl)cc3)ccc2O[C@H]1CN(C)C	1
C[C@@H]1CN([C@H](C)CO)C(=O)Cc2cc(NC(=O)C3CCCCC3)ccc2O[C@@H]1CN(C)Cc1ccccc1	-10
C/C=C/c1ccc([C@H]2[C@@H](CNC(=O)c3ccccn3)N(C(=O)CC)[C@H]2CO)cc1	-2
C[C@H]1CN([C@@H](C)CO)C(=O)c2cc(NS(=O)(=O)c3cn(C)cn3)ccc2O[C@H]1CN(C)C(=O)Nc1cccc2ccccc12	-3
Cc1noc(C)c1S(=O)(=O)Nc1ccc2c(c1)CC(=O)N([C@H](C)CO)C[C@@H](C)[C@@H](CN(C)C)O2	2
O=S(=O)(c1ccc(F)cc1)N1CCCCN2[C@H](C1)[C@@H](c1ccc(-c3ccccc3F)cc1)[C@@H]2CO	-4
COc1ccc(S(=O)(=O)N(C)C[C@@H]2Oc3c(NC(=O)C4CCCCC4)cccc3C(=O)N([C@H](C)CO)C[C@H]2C)cc1	18
CNC[C@H]1Oc2ccc(NS(=O)(=O)c3ccc(F)cc3)cc2CC(=O)N([C@H](C)CO)C[C@@H]1C	8
Cc1cccc(-c2ccc([C@@H]3[C@@H](CO)N4CCCCN(S(=O)(=O)c5cccs5)C[C@H]34)cc2)c1	-16
C[C@@H]1CN([C@@H](C)CO)C(=O)c2cc(NS(=O)(=O)c3cn(C)cn3)ccc2O[C@@H]1CN(C)Cc1ccc(C(=O)O)cc1	-20
COCC(=O)Nc1ccc2c(c1)OC[C@@H](C)N(Cc1cc(-c3ccccc3)on1)C[C@@H](C)[C@H](OC)CN(C)C2=O	1

Arranged by molar mass (high to low): some entries from above
SMILES	Yeast UUG start
COc1ccc(S(=O)(=O)N(C)C[C@@H]2Oc3c(NC(=O)C4CCCCC4)cccc3C(=O)N([C@H](C)CO)C[C@H]2C)cc1	18
COCC(=O)Nc1ccc2c(c1)OC[C@@H](C)N(Cc1cc(-c3ccccc3)on1)C[C@@H](C)[C@H](OC)CN(C)C2=O	1
Cc1cccc(S(=O)(=O)N2CCCCN3[C@H](C2)[C@@H](c2ccc(-c4ccccc4)cc2)[C@@H]3CO)c1	5
O=C(NCc1ccccc1F)[C@H]1[C@H](CO)[C@H]2Cn3c(cccc3=O)[C@H]2N1CC1CC1	2

Next structures.
SMILES	Yeast UUG start
C[C@@H]1CN([C@H](C)CO)C(=O)Cc2cc(NS(=O)(=O)c3cccs3)ccc2O[C@H]1CN(C)C	-1
C/C=C/c1ccc([C@H]2[C@@H](CO)N[C@@H]2CN(CC)C(=O)c2ccccn2)cc1	-3
O=C(Nc1ccccc1)[C@@H]1[C@@H](CO)[C@@H]2Cn3c(cccc3=O)[C@@H]2N1C(=O)C1CCC1	-16
CCCNC(=O)Nc1ccc2c(c1)C(=O)N(C)C[C@@H](OC)[C@@H](C)CN(Cc1cccnc1)[C@H](C)CO2	-2
CC(=O)N1[C@H](CO)[C@@H]2c3ccccc3N(C(=O)Nc3cc(F)ccc3F)C[C@@H]21	-11
CCC(=O)N1CCCCN2[C@H](CO)[C@H](c3ccc(-c4cccnc4)cc3)[C@H]2C1	-20
Cc1ccccc1-c1ccc([C@H]2[C@@H](CO)N3CCCCN(S(=O)(=O)c4cn(C)cn4)C[C@H]23)cc1	-6
CN(C)C(=O)c1ccc(-c2ccc([C@H]3[C@H]4CN(C(=O)C5CCC5)CCCCN4[C@H]3CO)cc2)cc1	7
CCCC(=O)Nc1ccc2c(c1)C(=O)N(C)C[C@H](OC)[C@@H](C)CN(Cc1ccc(-c3ccccn3)cc1)[C@H](C)CO2	4
Cc1noc(C)c1NC(=O)Nc1cccc2c1O[C@H](CN(C)S(=O)(=O)c1cn(C)cn1)[C@@H](C)CN([C@@H](C)CO)C2=O	1
COc1ccc(NC(=O)Nc2ccc3c(c2)C(=O)N([C@@H](C)CO)C[C@@H](C)[C@@H](CN(C)C)O3)cc1	19
CC(=O)N1[C@@H](CO)[C@H](c2ccccc2)[C@@H]1CN(C)S(=O)(=O)c1ccccc1	-6
CCCNC(=O)C[C@H]1C[C@H]2c3cc(NS(C)(=O)=O)ccc3O[C@H]2[C@H](CO)O1	-13
C/C=C/c1ccc([C@H]2[C@@H](CNC(=O)CC)N(C(=O)COC)[C@H]2CO)cc1	3
COCC#Cc1ccc([C@@H]2[C@@H](CO)N3CCCCN(S(=O)(=O)c4ccccc4C)C[C@H]23)cc1	0
O=C(Nc1ccc(F)cc1)N1C[C@H]2[C@@H](c3ccccc31)[C@@H](CO)N2Cc1ccccc1Cl	-6
COc1ccccc1NC(=O)N1CC[C@H]2[C@@H]1c1cc(C#Cc3ccc(F)cc3)ccc1N(C)[C@H]2CO	-3
CN1c2ccc(-c3ccc(F)cc3)cc2[C@@H]2[C@@H](CCN2S(=O)(=O)c2ccc(F)cc2)[C@@H]1CO	-11
CCCC(=O)Nc1ccc2c(c1)C(=O)N(C)C[C@H](OC)[C@@H](C)CN(Cc1ccc(-c3ccccn3)cc1)[C@@H](C)CO2	4
O=C(O)C[C@H]1C[C@@H]2c3cc(NC(=O)c4cccnc4)ccc3O[C@@H]2[C@H](CO)O1	-11
C[C@@H]1CN([C@H](C)CO)C(=O)c2cc(NC(=O)CCC(F)(F)F)ccc2O[C@@H]1CN(C)C(=O)Nc1ccc(C(F)(F)F)cc1	-3
O=C(NC1CCCC1)[C@@H]1[C@@H](CO)[C@@H]2Cn3c(cccc3=O)[C@H]1N2CC1CCCC1	17
CN1[C@H](C(=O)NC2CCCCC2)[C@@H](CO)[C@@H]2Cn3c(ccc(-c4cccc(F)c4)c3=O)[C@@H]21	13
C/C=C/c1ccc([C@@H]2[C@H](CO)N(C(=O)Cc3ccncc3)[C@H]2CNC(C)=O)cc1	-2
C[C@H](CO)N1C[C@H](C)[C@H](CN(C)Cc2ccncc2)Oc2c(NS(=O)(=O)c3ccc(F)cc3)cccc2C1=O	-12
CCCC(=O)Nc1ccc2c(c1)C(=O)N(C)C[C@H](OC)[C@H](C)CN(C(=O)c1cccnc1)[C@@H](C)CO2	-2
COCC(=O)N(C[C@@H]1N[C@@H](CO)[C@H]1c1ccc(C2=CCCCC2)cc1)C(C)C	3
OC[C@@H]1[C@H](c2ccc(C3=CCCC3)cc2)[C@@H]2CN(CCC(F)(F)F)CCCCN12	8
COc1cccc(C(=O)N2C[C@H]3[C@@H](c4ccccc42)[C@@H](CO)N3Cc2ccccc2F)c1	-9
C[C@@H]1CN([C@@H](C)CO)C(=O)c2cc(NS(C)(=O)=O)ccc2O[C@@H]1CN(C)S(C)(=O)=O	-11
O=C(Nc1ccc(F)cc1)N1C[C@@H]2[C@H](c3ccccc31)[C@@H](CO)N2C(=O)Cc1ccccn1	51
COc1ccc(S(=O)(=O)Nc2ccc3c(c2)CC(=O)N([C@@H](C)CO)C[C@H](C)[C@H](CN(C)Cc2ccncc2)O3)cc1	1
COc1ccc(NC(=O)N2C[C@H](O)COC[C@@H]3O[C@H](CC(=O)NC4Cc5ccccc5C4)CC[C@H]32)cc1	9
Cc1cc(C(=O)Nc2cccc3c2O[C@H](CN(C)C(=O)Nc2c(C)noc2C)[C@H](C)CN([C@H](C)CO)C3=O)n(C)n1	-3
COc1cccc(S(=O)(=O)Nc2ccc3c(c2)C(=O)N(C)C[C@H](OC)[C@H](C)CN(Cc2ccccc2F)[C@H](C)CO3)c1	7
CCC(=O)N1[C@H](CN(C)C(C)=O)[C@@H](c2ccc(-c3cccc(F)c3)cc2)[C@@H]1CO	-11
C[C@@H]1CN([C@H](C)CO)C(=O)c2cccc(N(C)C)c2O[C@H]1CN(C)S(=O)(=O)c1ccc(Cl)cc1	10
CCCC#Cc1ccc([C@@H]2[C@H](CO)N3CCCCN(S(=O)(=O)Cc4ccccc4)C[C@@H]23)cc1	10
C[C@@H]1CN([C@@H](C)CO)C(=O)c2cc(NS(=O)(=O)c3ccc(Cl)cc3)ccc2O[C@@H]1CN(C)Cc1ccc(C(=O)O)cc1	2
CC(C)(O)C#Cc1ccc([C@@H]2[C@H]3CN(C(=O)c4cccnc4)CCCCN3[C@H]2CO)cc1	-12

Reprinted from the part before: 6 compounds; new compounds follow.
SMILES	Yeast UUG start
COc1cccc(S(=O)(=O)Nc2ccc3c(c2)C(=O)N(C)C[C@H](OC)[C@H](C)CN(Cc2ccccc2F)[C@H](C)CO3)c1	7
CCC(=O)N1[C@H](CN(C)C(C)=O)[C@@H](c2ccc(-c3cccc(F)c3)cc2)[C@@H]1CO	-11
C[C@@H]1CN([C@H](C)CO)C(=O)c2cccc(N(C)C)c2O[C@H]1CN(C)S(=O)(=O)c1ccc(Cl)cc1	10
CCCC#Cc1ccc([C@@H]2[C@H](CO)N3CCCCN(S(=O)(=O)Cc4ccccc4)C[C@@H]23)cc1	10
C[C@@H]1CN([C@@H](C)CO)C(=O)c2cc(NS(=O)(=O)c3ccc(Cl)cc3)ccc2O[C@@H]1CN(C)Cc1ccc(C(=O)O)cc1	2
CC(C)(O)C#Cc1ccc([C@@H]2[C@H]3CN(C(=O)c4cccnc4)CCCCN3[C@H]2CO)cc1	-12
CC(=O)N1[C@@H]2Cn3c(ccc(C4=CCCC4)c3=O)[C@H]1[C@@H](C(=O)N[C@H](C)c1ccccc1)[C@@H]2CO	24
C[C@H](CO)N1C[C@H](C)[C@H](CN(C)Cc2ccccc2)OCc2ccccc2-c2ccccc2C1=O	-5
C[C@H]1CN([C@@H](C)CO)C(=O)Cc2cc(NC(=O)CCCN(C)C)ccc2O[C@@H]1CN(C)Cc1ccc(-c2ccccc2)cc1	-12
O=C(C[C@H]1C[C@H]2c3cc(NS(=O)(=O)c4ccccc4)ccc3O[C@H]2[C@H](CO)O1)NC1CCCC1	8
O=S(=O)(c1ccccc1F)N1CCCCN2[C@@H](CO)[C@@H](c3ccc(-c4cccnc4)cc3)[C@@H]2C1	-2
CCCNC(=O)C[C@@H]1C[C@@H]2c3cc(NS(=O)(=O)c4cccc(OC)c4)ccc3O[C@@H]2[C@@H](CO)O1	-4

Not all compounds are listed (hit frequency here may not be typical).
